# gsp ag – gsp mutant agonism; AID 624287; Potency, µM (titrated, usually from 76.9 µM), for inactives: at the highest dose activation (cAMP increase), most hits filed as activators; gsp mutant cells, cAMP HTRF, 30 min; control for the full effect not named in the record; actives 0.13% (n = 340,000); active = well fitted activation curve with a large enough effect; inconclusive = small, poorly fitted or top-dose-only effect, or another doubt; inactive = no such curve, though single readings can be large or run the other way; cell line not stated here;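 also: phosphodiesterase inhibitor Ro 20-1724 added with compounds to block cAMP breakdown; potency is read from the fitted curve at half-maximal effect; nearly all actives have a fitted effect of over 60% in size; about a fifth of the inactives were tested at one dose only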
#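 Cells in DMEM/10% FBS with G418 were pretreated with compounds in DMSO plus […] (300 uM stock) for 30 min at 37C. cAMP was measured by HTRF (cAMP-d2 plus anti-cAMP antibody-K) after 30 min at room temperature.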
# ClpP mod – qHTS Assay for Activators of ClpP. purified B. subtilis ClpP, FRET peptide cleavage, 20 min. Potency, µM (doses to about 57.5 µM), inactives show top-dose activity change, negative = active. actives 1.9% (n = 340,000); active = well fitted falling curve with a large enough effect; inconclusive = small, poorly fitted or top-dose-only effect; inactive = no such curve, though single readings can be large or run the other way; also: potency is read from the fitted curve at half-maximal effect; the source files actives as falling curves though it sought activators and does not explain the sign; nearly all actives have a fitted effect of over 65% in size; many hits overshoot -100%
# Target sequence (P80244 whole entry, looked up): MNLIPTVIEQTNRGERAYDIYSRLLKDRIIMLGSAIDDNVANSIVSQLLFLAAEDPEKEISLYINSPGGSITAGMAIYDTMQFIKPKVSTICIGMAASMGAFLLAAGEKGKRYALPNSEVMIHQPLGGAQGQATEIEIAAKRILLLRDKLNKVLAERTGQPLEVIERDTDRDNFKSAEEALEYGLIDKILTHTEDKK
#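 FRET quenching reversal measured ClpP activation: 10 microg/mL B. subtilis ClpP at pH 8 with the FRET-FV decapeptide, read at 430 nm after 320 nm excitation. The 20-min minus 0-min signal was scaled between DMSO/no-enzyme wells and ADEP (5.8 microM final).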
# gsp antag – antagonizes gsp, the McCune-Albright syndrome mutation; gsp-mutant cells, cAMP HTRF, 30 min; control for the full effect not named in the record; Potency, µM (titrated, usually from 76.9 µM), for the others: top-dose activity change, negative = inhibition, hits mostly inhibitors; actives 0.4% (n = 340,000); AID 624288; active = falling curve of any shape with a large fitted effect; inconclusive = falling curve, mostly with a smaller effect; inactive = flat or rising curve; cell line not stated here;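 also: intracellular cAMP measured with PDE inhibitor Ro 20-1724 present during compound exposure; potency is read from the fitted curve at half-maximal effect; % is scaled to controls: 0 for no effect and ±100 for the full control effect; nearly all actives have a fitted effect of over 65% in size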
#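 G418-selected cells were plated in DMEM/10% FBS for 16-24 h at 37C, then treated with compounds plus the PDE inhibitor […] (300 uM solution added) for 30 min at 37C. Intracellular cAMP was measured by HTRF after 30 min lysis at room temperature.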
# D2 PAM – potentiates the human D2 dopamine receptor allosterically; actives 0.23% (n = 360,000); P14416; potentiation, % (no concentration beside the values); DiscoveRx D2 beta-arrestin cells, luminescence, 90 min; 100% = 57 uM dopamine signal; active = potentiation of 50% or more; inconclusive = 30% to 50%; inactive = 30% or less;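 also: compound concentration not given in the record; tested on top of an EC20 dose of dopamine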
# Target sequence (P14416 whole entry, looked up): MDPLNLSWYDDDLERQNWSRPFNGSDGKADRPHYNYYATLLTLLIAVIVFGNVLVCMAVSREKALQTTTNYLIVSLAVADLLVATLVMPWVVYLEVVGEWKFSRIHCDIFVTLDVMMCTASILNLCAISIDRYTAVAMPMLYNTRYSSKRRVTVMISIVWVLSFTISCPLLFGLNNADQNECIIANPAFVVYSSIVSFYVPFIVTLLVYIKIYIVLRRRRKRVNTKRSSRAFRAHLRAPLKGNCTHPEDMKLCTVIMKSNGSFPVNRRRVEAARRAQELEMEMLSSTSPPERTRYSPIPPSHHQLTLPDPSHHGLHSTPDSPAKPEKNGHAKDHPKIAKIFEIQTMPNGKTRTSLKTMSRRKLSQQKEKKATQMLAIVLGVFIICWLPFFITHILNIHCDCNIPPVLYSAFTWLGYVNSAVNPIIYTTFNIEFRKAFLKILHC
#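 D2 cells co-treated with compound plus 50 nM dopamine (EC20) for 90 min at 37 deg C to detect potentiation. Beta-arrestin recruitment was read as enzyme-fragment luminescence after 1 h at ambient temperature. Full response was set by 57 uM dopamine.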
# Sfp inh – blocks B. subtilis Sfp PPTase activity; Biochemical Sfp PPTase activity, qHTS; Potency, µM, without a hit: max response, negative = inhibition, actives largely listed as inhibitors; actives 3.5% (n = 310,000); Q9F4F7; active = well fitted inhibition curve with a large enough effect; inconclusive = small, poorly fitted or top-dose-only effect, or another doubt; inactive = no such curve, though single readings can be large or run the other way;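 also: the enzyme is Sfp with the accession as filed and its product quenches rhodamine fluorescence; potency is read from the fitted curve at half-maximal effect; 0% = enzyme reaction without inhibitor and -100% = no enzyme wells; top concentration of the series not given in the record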
#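 Fluorescence-quenching assay: 15 nM Sfp-PPTase preincubated 15 min at room temperature with compound, then 5 uM rhodamine-CoA and 12.5 uM BHQ-2-labelled YbbR peptide added. Fluorescence (ex 525/em 598 nm) read at start and after 30 min; difference gives rate.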
# TRPV1 PAM – potentiators of human vanilloid receptor 1 (TRPV1) | Q8NER1 | TRPV1-expressing cells, Fluo-8 calcium influx, capsaicin EC20 potentiation; host cell line not named in the record; control for the full effect not named in the record | potentiation, % at 8.33 µM | actives 0.02% (n = 320,000); active means potentiation above 80%; inconclusive means 30% to 80%; inactive means below 30%; also: 0% is about no effect
#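 TRPV1-expressing cells were cultured overnight at 35.5C and loaded with Fluo-8 calcium dye for 40 to 90 min at room temperature. After a 10 s baseline, compound was added and calcium influx was read kinetically for 3 min (ex 480/em 520 nm).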
# Menin MLL FP FL – menin-MLL binding inhibition, fluorescein peptide; Fluorescence polarization, fluorescein-MLL peptide displacement from menin; FP activity change, % at 61.4 µM; 290,000 tested, under 10 active; inconclusive = falling polarisation curve, or a change in total fluorescence; inactive = total fluorescence flat and polarisation flat or rising; no compound was filed as active; the % refers to the polarisation; negative = inhibition;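 also: % of control where 0% means no effect; inhibitors lower the polarisation; unlabelled MLL peptide was the positive control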
# Numbers without * were called inactive; ? = inconclusive; nt = no result given; & = joins results of further samples; [ ] = dose if it differs, or a comment.
# Under each structure: gsp ag	ClpP mod	gsp antag	D2 PAM	Sfp inh	TRPV1 PAM	Menin MLL FP FL
CC1CCCN(Cc2cnc(Cl)s2)C1 (stereo unspecified)
 : 15%	-1.4%	2%	-19	5%	1	1.1
O=C1OC(/C=C/c2ccccc2)=NC/1=C/C=C/c1ccccc1
 : 17%	-3.5%	0%	-3	-3%	14	10
CC1C(=O)OC2C1CCC1(C)CCC(=O)C(C)C21 (stereo unspecified)
 : -24%	nt	15%	-3	-30%	-18	-14
CC(C)c1ccc(N(CC(=O)NCc2cccnc2)S(=O)(=O)c2ccccc2)cc1
 : -2%	nt	-2%	-2	-2%	-2	2.9
COc1ccc(OCC(=O)Nc2cccc(-c3nc4ccccc4[nH]3)c2)cc1
 : ?	?	-22%	5	9%	5	2.3
COc1ccc(-c2nc3ccccn3c2Cl)cc1
 : -3%	3.8%	-6%	-13	1%	9	3.0
CSc1nc(N2CCN(c3ccccc3)CC2)cc(N2CCN(c3ccccc3)CC2)n1
 : 4%[15.4 µM]	nt	-4%	-3	15%	1	-3.9
Cc1cccc(N=C2NC(=O)/C(=C/c3cn(C)c4ccccc34)S2)c1
 : 2%	-5.2%	?	-14	-5%	12	?
O=C(c1ccc(CS(=O)c2ccccc2Cl)o1)N1CCCCCC1 (stereo unspecified)
 : 19%	0.6%	2%	-6	15%	7	nt
O=C(Cn1cnc2c(nnn2Cc2ccccc2)c1=O)N1CCN(c2ccccc2)CC1
 : ?	0.5%	6%	-7	11%	-2	-0.4
O=C(CCN1C(=O)C2CC=CCC2C1=O)Nc1cccc(S(=O)(=O)N2CCCCC2)c1 (stereo unspecified)
 : 12%	-1.0%	-5%	-3	nt	2	nt
CCOc1ccc(NC(=S)NC(=O)c2c(Br)cnn2C)c([N+](=O)[O-])c1
 : -1%[15.4 µM]	0.7%	8%	-5	-6%	1	-1.3
CC(C(=O)N(C)C1CCS(=O)(=O)C1)N1C(=O)/C(=C/c2cccs2)SC1=S (stereo unspecified)
 : ?	-0.6%	-4%	-5	9%	2	3.0
Cc1ccc(S(=O)(=O)N2CCN(C(=O)COC(=O)c3c(C)noc3C)CC2)c(C)c1
 : -5%	-0.7%	-13%	-9	25%	5	1.3
CN(c1ccccc1C(=O)Nc1ccc(S(=O)(=O)N2CCOCC2)cc1)S(C)(=O)=O
 : -17%	-3.3%	4%	14	17%	-13	0.3
CC(C)c1ccc(NC(=O)COc2nncc3ccccc23)cc1
 : 0%[15.4 µM]	nt	7%	-3	-5%	-12	1.7
Cc1ccc(S(=O)(=O)N(C)C)cc1NC(=O)[C@H](Cc1ccccc1)N1C(=O)c2ccccc2C1=O
 : -6%[15.4 µM]	-1.9%	-8%	-32	-3%	18	3.0
COc1ccc(C(C)(C)C)cc1NC(=O)COC(=O)c1cnc(C)cn1
 : 3%	1.5%	-5%	-12	4%	-3	0.9
CN(c1ccccn1)c1ncnc2[nH]ncc12
 : -12%	-0.6%	-1%	-1	5%	5	-0.2
CC1(C)OC(=O)C(=Cc2ccc(-c3ccc(S(N)(=O)=O)cc3)o2)C(=O)O1
 : 10%	nt	?	-2	56µM*	8	5.5
CC(Sc1nnc(Cc2cccs2)n1C)C(=O)Nc1ccc(C(N)=O)cc1 (stereo unspecified)
 : -1%	-0.8%	15%	6	nt	15	nt
COCCNC(=O)/C(C#N)=C\c1ccc(CNC(=O)C(=O)Nc2ccc(C)c(C)c2)o1
 : ?	-3.0%	-15%	0	-1%	-1	?
COc1ccc(/C=C2\SC(=S)N(NS(=O)(=O)c3ccccc3)C2=O)c(OC)c1
 : -155%[inhibitor]	2.2%	?	-1	?	?	10
COc1cccc(CN2CCCC(N3CCc4ccccc4C3)C2)c1O (stereo unspecified)
 : -13%	nt	11%	-22	1%	-3	-0.8
CN(C)/N=C/c1ccc([N+](=O)[O-])cc1[N+](=O)[O-]
 : -7%[15.4 µM]	-1.7%	2%	7	56µM*	22	-0.7
COc1ccccc1N(C)C(=O)c1cc(S(=O)(=O)N2CCCC2)cn1C
 : ?	-11%	2%	-3	10%	-22	-5.7
O=C(CC1S/C(=N/N=C/c2c[nH]c3ccccc23)NC1=O)Nc1ccccc1 (stereo unspecified)
 : -13%	-1.7%	5%	-3	-7%	-9	4.3
O=C(O)c1cc2ccccc2cn1
 : 3%	nt	-1%	1	nt	nt	nt
CC(c1nc2ccccc2c(=O)[nH]1)N1CCCN(S(=O)(=O)c2ccc(F)cc2)CC1 (stereo unspecified)
 : ?	-14%	-18%	-13	nt	-2	nt
Cc1cc(O)cc(=O)n1CCc1ccccc1
 : 20%	5.7%	-11%	-13	6%	-3	2.3
Cn1c(=NC(=O)CS(=O)(=O)c2ccccc2)sc2cc([N+](=O)[O-])ccc21
 : 10%[15.4 µM]	nt	-5%	4	nt	-7	nt
Fc1ccc(OCc2nc(-c3cccs3)no2)cc1
 : 23%	-1.7%	8%	2	18%	-11	-1.3
O=C1C=CC(=O)N1c1ccc(I)cc1Cl
 : nt	nt	nt	nt	12%	?	-2.7
CCN(CC)CCNC(=O)C(C)c1nn(C)c(=O)c2ccccc12 (stereo unspecified)
 : ?	-1.9%	13%	-10	18%	20	-1.9
N=c1c(C(=O)NCc2ccco2)cc2c(=O)n3ccccc3nc2n1CCc1ccccc1
 : ?	28µM*	-2%	-24	-8%	2	4.6
CC(O)C1CCC2C3CCC4CC(O)CCC4(C)C3C(=O)CC12C (stereo unspecified)
 : nt	0.0%	-5%	-20	nt	nt	nt
CCn1c(=O)n(CC)c2cc(S(=O)(=O)N3CCC(c4ccccc4)CC3)ccc21
 : -2%	-0.9%	?	-5	-4%	-15	1.3
CCCCNC(=O)C1CCN(S(=O)(=O)c2cnc[nH]2)CC1
 : -6%	-0.3%	-2%	-6	9%	9	2.4
O=C(Cn1cnc2scc(-c3ccc(Br)cc3)c2c1=O)N1CCOCC1
 : -17%	-0.6%	-5%	-2	13%	0	-3.7
Cc1oc2cc(O)ccc2c(=O)c1Oc1ccc(F)cc1
 : 0%	4.0%	-8%	-2	11%	-7	3.8
NS(=O)(=O)c1ccc2nc(-c3ccccc3)c(-c3ccccc3)nc2c1
 : 2%[15.4 µM]	-29%	-4%	-10	26%	13	7.5
CN(Cc1ccco1)C(=O)CSc1nn2c(=O)c(C(C)(C)C)nnc2s1
 : ?	-0.3%	-2%	1	nt	nt	nt
COC(=O)CSc1nccc(C)n1
 : -37%[inhibitor]	0.1%	3%	-6	10%	4	-2.5
CCOc1ccc(NC(=O)CN2C(=O)NC(C)(c3ccc(OC(F)F)cc3)C2=O)cc1 (stereo unspecified)
 : 2%[15.4 µM]	nt	5%	-6	5%	-2	0.3
COc1ccc(/C(O)=C2/C(=O)C(=O)N(CCCN3CCOCC3)C2c2ccc(C)cc2)cc1 (stereo unspecified)
 : 35%	-1.2%	3%	-2	26%	28	-5.1
CC[C@H](CO)Oc1cc(NCc2ccc(Cl)c(Cl)c2)c2ncn(C(C)C)c2c1
 : 6%	0.4%	-4%	-11	nt	nt	nt
Cc1nn(C(C)C(=O)NNC(=S)Nc2ccc(Cl)cc2)c(C)c1[N+](=O)[O-] (stereo unspecified)
 : -12%	0.3%	-20%	-14	26%	4	1.2
C=CCn1c(SCc2ccc(F)cc2)nnc1-c1sc2nc(C)cc(C)c2c1N
 : ?	nt	11%	-2	6%	-1	3.6
O=S(=O)(c1cccs1)N1CCN(C/C=C/c2ccccc2)CC1
 : -32%[inhibitor]	-6.8%	-8%	-20	-6%	-3	-2.3
O=C(/C=C/c1cccc(Br)c1)OCC(=O)N1CCN(c2ccccc2)CC1
 : ?	-3.0%	-13%	-3	nt	5	nt
CC(C(=O)Nc1ccc(C(N)=O)cc1)N1C(=O)c2ccccc2S1(=O)=O (stereo unspecified)
 : 2%[15.4 µM]	nt	-5%	2	nt	0	nt
Cn1cc(CN2CCCCC2CO)c(-c2ccc(Oc3ccccc3)cc2)n1 (stereo unspecified)
 : 9%[15.4 µM]	nt	9%	-22	15%	2	-3.1
CCOC(=O)c1cccc(NC(=O)Cn2c(CC(=O)NC)nc3ccccc32)c1
 : -11%	-3.0%	-2%	-9	9%	-4	0.5
NC(=O)C1CCN(c2ccc(S(=O)(=O)N3CCC(Cc4ccccc4)CC3)cn2)CC1
 : -2%[15.4 µM]	nt	-6%	3	16%	-4	-1.1
O=C(CNC(=O)Cc1ccccc1)NCC(=O)N1CCCCC1
 : 38%	0.9%	2%	-15	3%	-8	nt
CC1Cc2ccccc2N1C(=O)CSc1nnc(CSc2ncccn2)n1C (stereo unspecified)
 : -8%	-0.7%	-8%	-7	-3%	11	-1.2
Cc1ccc(CSc2nc(-c3ccccc3)c(C#N)c(=O)[nH]2)cc1
 : ?	-9.3%	-19%	-7	-6%	6	0.0
CCOC(=O)c1csc(NC(=O)CSc2nnc(C3CC3)n2C)n1
 : 25%	-1.9%	4%	1	18%	-9	5.7
Cc1nc(SCC(=O)c2ccc(Cl)cc2)c([N+](=O)[O-])[nH]1
 : 15%	-0.3%	?	-42	1%	25	-1.8
CCN(CC)CC(=O)Nc1ccc2c(c1)Nc1ccccc1CC2
 : -14%	-0.6%	1%	-24	-15%	7	-1.1

# Other compounds:
# Under each structure: gsp ag	ClpP mod	gsp antag	D2 PAM	Sfp inh	TRPV1 PAM	Menin MLL FP FL
Cc1ccc(S(=O)(=O)Nc2ccc3c(c2)C(=O)N([C@H](C)CO)C[C@H](C)[C@@H](CN(C)C(=O)Nc2ccc4c(c2)OCO4)O3)cc1
 : nt	-2.9%	-12%	-4	nt	nt	nt
O=C(NCCCN1CCOCC1)c1ccc2c(c1)N(Cc1ccccc1)C(=O)c1ccccc1S2
 : -26%	0.6%&-0.8%	0%	-15	5%	12	nt
CC(C)CN1CC(C)C(=O)NC1=S (stereo unspecified)
 : -24%	28µM*	16%	-7	nt	nt	nt
CCOC(=O)C1CCCN(C(=O)c2ccc3c(=O)n(CCOC)c(=S)[nH]c3c2)C1 (stereo unspecified)
 : 4%	0.7%	-26%	-1	?	-7	-0.5
